# Compound activity: PubChem BioAssay, National Center for Advancing Translational Sciences (NCATS)
# 2A StopGo: High Throughput Screening for Foot and Mouth Disease Virus Antivirals | human cells with a luciferase reporter of 2A StopGo recoding; control for the full effect not named in the record | Potency, µM (titrated, usually from 57.9 µM), for inactives: top-dose signal change, negative = less light | actives 1.2% (n = 410,000); active = well fitted falling curve with a large enough effect; inconclusive = small, poorly fitted or top-dose-only effect; inactive = no such curve, though single readings can be large or run the other way; tested in HEK293T cells; also: % is scaled to controls: 0 for no effect and ±100 for the full control effect; nearly all actives have a fitted effect of over 45% in size; luciferase light after 4 h
# LASV entry inh: qHTS for Inhibitors of binding or entry into cells for Lassa Virus. AID 540256, 2011. Potency, µM (titrated, usually from 37.9 µM), for the others: at the highest dose activity change, negative = inhibition, most hits filed as inhibitors. Lassa virus pseudotype entry inhibition, cell reporter; control for the full effect not named in the record. actives 1.2% (n = 300,000); active means well fitted inhibition curve with a large enough effect; inconclusive means small, poorly fitted or top-dose-only effect, or effect the other way; inactive means flat fitted curve, though single readings scatter; tested in HEK293 cells; also: % is scaled to controls: 0 for no effect and ±100 for the full control effect; nearly all actives have a fitted effect of over 50% in size; luciferase read-out
# NS1 function inh: qHTS Assay for Inhibitors of Influenza NS1 Protein Function; S. cerevisiae slowed by influenza A NS1, growth recovery by OD600; Potency, µM (titrated, usually from 46.1 µM), for inactives: at the top dose activity, positive = more growth; actives 0.4% (n = 270,000); active means well fitted rising curve with a large enough effect; inconclusive means small, poorly fitted or top-dose-only effect; inactive means no such curve, though single readings can be large or run the other way; also: nearly all actives have a fitted effect of over 50% in size
#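 Recovery from NS1-induced slow growth read by OD600 in budding yeast switched to galactose assay medium (pH 6.0, -URA) at 1:100 dilution. Compound 23 nl per well; the matching strain lacking NS1 serves as control.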
# Marburg entry inh: qHTS for inhibitors of binding or entry into cells for Marburg Virus; Potency, µM (doses to about 37.8 µM), inactives show top-dose activity change, negative = inhibition, actives largely listed as inhibitors; Marburg virus pseudotyped entry inhibition, cell reporter; control for the full effect not named in the record; about a third of the inactives were read at about 46 µM; actives 1.8% (n = 300,000); active = well fitted inhibition curve with a large enough effect; inconclusive = small, poorly fitted or top-dose-only effect, or effect the other way; inactive = flat fitted curve, though single readings scatter; tested in HEK293 cells; about a fifth of its hits are not listed in these tables; also: % is scaled to controls: 0 for no effect and ±100 for the full control effect; luciferase read-out
# Cruzain Triton: qHTS Assay for Promiscuous and Specific Inhibitors of Cruzain (with detergent) | Potency, µM, for inactives: max response, negative = inhibition, usual class: inhibitors | AID 1478, 2009 | purified cruzain, Z-FR-AMC fluorescence, 0.01% Triton | actives 0.43% (n = 200,000);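 also: plate controls were neutral wells for no effect and buffer without enzyme for full effect; nearly all actives have a fitted effect of over 40% in size; top concentration of the series not given in the record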
# Target sequence (P25779 123-467 limits assumed): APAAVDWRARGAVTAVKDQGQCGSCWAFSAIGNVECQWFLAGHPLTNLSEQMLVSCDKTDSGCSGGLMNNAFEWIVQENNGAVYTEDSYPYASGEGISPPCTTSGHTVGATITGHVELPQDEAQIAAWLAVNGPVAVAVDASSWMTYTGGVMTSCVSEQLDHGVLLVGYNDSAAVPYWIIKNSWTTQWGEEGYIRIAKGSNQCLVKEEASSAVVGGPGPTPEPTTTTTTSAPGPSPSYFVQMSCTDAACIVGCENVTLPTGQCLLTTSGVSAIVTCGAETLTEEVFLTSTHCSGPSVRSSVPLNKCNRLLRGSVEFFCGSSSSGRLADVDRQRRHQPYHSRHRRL
#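 Steps: dispense cruzain (1.5 nM final) in acetate buffer pH 5.5 with DTT and 0.01% Triton X-100; pin-transfer compounds; incubate 15 min RT; add Z-FR-AMC (2 uM final); read fluorescence every 30 s, using the 60 s intensity change.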
# Cruzain noTriton: qHTS Assay for Promiscuous and Specific Inhibitors of Cruzain (without detergent). purified cruzain, Z-FR-AMC fluorescence, no detergent. Potency, µM, without a hit: max response, negative = inhibition, hits mostly inhibitors. actives 2.3% (n = 200,000). AID 1476, 2009;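 also: plate controls were enzyme without inhibitor for no effect and buffer without enzyme for full effect; nearly all actives have a fitted effect of over 40% in size; top concentration of the series not given in the record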
#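 Detergent-free condition (0.00005% Triton X-100) in acetate buffer pH 5.5 with DTT. 1.5 nM enzyme and compound were pre-mixed 15 min, then 2 uM Z-FR-AMC substrate added; reaction progress from fluorescence change between first and third reads (60 s).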
# RE007 growth inh: qHTS Assay for Inhibitors of the HIV-1 protein Vpr. actives 0.21% (n = 360,000). Potency, µM (series often up to 92.2 µM), for inactives: at the top dose activity change, negative = less growth. S. pombe RE007 Vpr strain, BacTiter-Glo ATP luminescence, 24 h; control for the full effect not named in the record; active = well fitted falling curve with a large enough effect; inconclusive = small, poorly fitted or top-dose-only effect; inactive = no such curve, though single readings can be large or run the other way;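 also: % is scaled to controls: 0 for no effect and ±100 for the full control effect; nearly all actives have a fitted effect of over 50% in size; the assay follows cell death caused by Vpr and the record does not say whether a fall means rescue or toxicity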
#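 Fission yeast strain RE007, carrying one chromosomally integrated HIV-1 vpr copy, was seeded at OD 0.01 in PMG+AL medium with 23 nL pinned compound. After 24 h at 30 °C and 99% humidity, viability was read by BacTiter-Glo luminescence.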
# SARS PLpro yeast: qHTS of Yeast-based Assay for SARS-CoV PLP. S. cerevisiae expressing SARS-CoV PLpro, growth rescue; control for the full effect not named in the record. Potency, µM (titrated, usually from 32.9 µM), without a hit: at the top dose activity, positive = growth rescue. actives 0.19% (n = 330,000); active means well fitted rising curve with a large enough effect; inconclusive means small, poorly fitted or top-dose-only effect; inactive means no such curve, though single readings can be large or run the other way; also: 0% is about no effect; nearly all actives have a fitted effect of over 55% in size; growth read by luminescence after 48 h
# Active calls of the source: *; u = inconclusive; x = not tested or not shown; & = joins results of further samples; [ ] = dose if it differs, or a comment. Unless noted, calls follow the shape of the dose curve; as a rule, active = well fitted curve in the direction sought with a large enough effect; inconclusive = small, poorly fitted or top-dose-only effect, or another doubt; inactive = no such curve, though single readings can be large; an effect the other way counts as inactive or inconclusive. Potency is read from the fitted curve at half-maximal effect.
SMILES,2A StopGo,LASV entry inh,NS1 function inh,Marburg entry inh,Cruzain Triton,Cruzain noTriton,RE007 growth inh,SARS PLpro yeast
CCCc1ccc(-c2cc(C(=O)NC3=NCCS3)c3ccccc3n2)cc1,-13%,-23%,1%,-25%,-8.8%,u,-1%,-19%
CC(C)(C)C(=O)NC(=S)Nc1ccc(F)cc1,24%,6%,7%,u,-5.1%,-3%,-10%,u
O=C(O)C1CCCCC1C(=O)NCCCc1ccccc1 (stereo not given),11%,-17%,-5%,u,3.4%,1%,24%,-12%
Cc1cc(C)c(NC(=O)COC(=O)CSc2ccc(Br)cc2C)c(C)c1,0%,-1%,-18%,1%,-6.2%,-7%,x,-5%
CCN(C(=O)CSc1cc(C)c2ccccc2n1)C1CCS(=O)(=O)C1 (stereo not given),-19%,-2%,x,-3%[46.1 µM],x,x,-8%,-6%
Cc1cc(SCC(=O)c2ccc(O)c(O)c2)nc2ccccc12,-19%,-4%,2%,u,x,x,5%,-2%
NC(=O)CCn1ccc2ccccc21,-6%,16%[46.1 µM],x,1%[46.1 µM],x,x,7%,-3%
Nc1nc(Cl)nc2ncn(Cc3ccccc3)c12,u,u,-15%,22%,x,x,5%,3%
O=C(CCNS(=O)(=O)c1ccc2c(c1)CCC(=O)N2)NCc1ccc2c(c1)OCO2,-20%,7%,4%,6%,5.1%,-8%,1%,6%
Cc1csc(NC(=O)c2cccc(C)c2C)n1,13%,-15%,-31%,u,-0.8%,-7%,0%,2%
O=C(C1CCN(S(=O)(=O)c2cccc3cccnc23)CC1)N1CCc2ccccc21,-16%,u,-38%,u,-2.2%,3%,26%,-2%
CSc1ccccc1OCc1cc(C(=O)N(C)Cc2ccc(C)o2)no1,27%,u,-46%,u,x,x,-20%,-10%
COc1ccc(-n2nnc3c(=O)n(CC(=O)N4CCCc5ccccc54)cnc32)cc1,0%,x,-18%,1%,-0.8%,-2%,-1%,0%
O=c1[nH]c(CSc2nnnn2-c2ccc(Cl)cc2)nc2ccccc12,-4%,-22%[46.1 µM],x,2%,x,x,0%,2%
CCCN1Cc2cccc(C(=O)N3CCN(c4ccccc4)CC3)c2C1=O,-18%,-14%,1%,u,0.9%,0%,14%,-4%
Cc1cccc(Nc2ncnc3nc[nH]c23)c1,48%[activator],x,-70%,x,-4.0%,-8%,-1%,u
COc1cc(C2c3cc4c(cc3OC(N3CCCC3)C2C)OCO4)cc(OC)c1O (stereo not given),2%,-21%[46.1 µM],x,-20%,x,x,1%,x
COc1cc2c(cc1NC(=O)c1cccc([N+](=O)[O-])c1C)oc1ccccc12,20%,-6%,26%,-28%,-4.8%,u,-5%,-21%
CC(=O)c1cccc(NC(=O)c2ccc3c(c2)CCCC3)c1,35%[activator],x,-69%,x,x,x,-2%,-6%
CCC(=O)Nc1ccc(C(=O)NNC(=O)c2cc([N+](=O)[O-])cc([N+](=O)[O-])c2)cc1,-16%,-9%,0%,28%[46.1 µM],x,x,7%,0%
Cc1cc2c(cc1S(=O)(=O)CCC(=O)NC1CCCCC1C)OCC(=O)N2 (stereo not given),-18%,x,-9%,x,x,x,9%,-3%
N#CC1(NC(=O)COC(=O)c2ccccc2SCC(=O)N2CCCC2)CCCCC1,-2%,18%,6%,-1%,x,x,-6%,-3%
Cc1cccc(N(Cc2ccccc2)C(=O)Cc2ccc(S(=O)(=O)N3CCOCC3)s2)c1,-7%,-22%,x,-7%,x,x,-4%,4%
COc1cccc(NC(=O)COC(=O)c2c3c(nc4ccccc24)CCC(C)C3)c1 (stereo not given),32µM*,18µM*,-160%,7.3µM*,-5.0%,u,9%,-21%
CCn1c(SCC(=O)NC2(C#N)CCCCC2)nc2ccccc2c1=O,-14%,2%,x,-18%,x,x,-20%,2%

# Further compounds.
SMILES,2A StopGo,LASV entry inh,NS1 function inh,Marburg entry inh,Cruzain Triton,Cruzain noTriton,RE007 growth inh,SARS PLpro yeast
CSc1cccc(NC(=O)CN2C(=O)COc3ccc(Cl)cc32)c1,u,-23%[46.1 µM],x,-3%[46.1 µM],-8.5%,-19%,x,x
Cc1nc(Nc2ccc(Cl)c(Cl)c2)sc1C(=O)Nc1ccccc1,-21%,u,3%,u,-7.1%,-6%,u,-84%
CC(C)C(C(=O)NCc1ccco1)N(Cc1ccco1)C(=O)CNS(=O)(=O)c1ccc(F)cc1 (stereo not given),-3%,0%[46.1 µM],-7%,-8%[46.1 µM],x,x,-6%,1%
COc1ccc(-c2nc(SC(CC(=O)NCCO)c3cccs3)n[nH]2)cc1 (stereo not given),0%,17%,x,20%,x,x,36%,1%
CN(Cc1cc(Cl)cc(Cl)c1)CC(C(=O)c1ccccc1)c1ccccc1 (stereo not given),u,u,x,u,x,x,12%,x
CCOc1ccc(CCNC(=O)c2cc(C)nc3c2c(C)nn3-c2cccc(F)c2)cc1,-10%,13%[46.1 µM],x,x,-3.1%,-5%,x,x
CCOC(=O)c1cc(-c2ccccc2)sc1NC(=O)CN1C(=O)NC(CC)(c2ccc(F)cc2)C1=O (stereo not given),-11%,2%,11µM*,u,1.0%,10µM*,11%,-8%
CC(=O)/C(=N\Nc1ccccc1)Sc1nnc(-c2ccccc2)n1-c1ccccc1,1%,-5%,3%,u,-3.1%,4%,12%,5%
C/C(CC(=O)NCc1ccco1)=N\NC(=O)Cc1cccc2ccccc12,0%,1%,6%,3%,3.8%,-1%,3%,1%
CCOc1cc(S(=O)(=O)NCC2CCCO2)ccc1F (stereo not given),32%[activator],x,-1%,x,x,x,2%,8%
O=C(OCc1c(Cl)cccc1Cl)c1ccncc1,-6%,u,-10%,u,-1.6%,17%,-15%,-22%
COc1ccc(Cl)cc1NC(=O)C1CCN(S(C)(=O)=O)CC1,-13%,22%,8%,-7%,x,x,-5%,8%
CCN(CC(=O)NCCc1ccc(S(N)(=O)=O)cc1)Cc1nc2cc(OC)c(OC)cc2c(=O)[nH]1,11%,11%,-8%,u,0.0%,3%,0%,2%
COC(=O)C(C)N(C(=O)c1ccc(C(=O)c2ccccc2)cc1)c1c(C)cccc1C (stereo not given),-11%,u,-51%,-26%,1.2%,17%,10%,-26%
CCCS(=O)(=O)c1nc(S(=O)(=O)c2ccc(C)cc2)c(NCCCOC(C)C)s1,1%,u,x,15%[46.1 µM],-7.0%,u,x,x
COCCn1c(NCc2ccco2)nc2c1c(=O)[nH]c(=O)n2C,-8%,8%[46.1 µM],2%,-15%[46.1 µM],x,x,-16%,0%
Cc1ccccc1S(=O)(=O)Cc1ccc(C(=O)NCCCN2CCN(C)CC2)o1,-12%,1%,6%,-3%,4.0%,1%,9%,u
CC(=O)N(c1c(C)n(C)n(-c2ccccc2)c1=O)C1(C(=O)NC2CCCCC2)CCCCC1,6%,17%,2%,8%,11%,7%,14%,-1%
COCCn1c(SCC(=O)Nc2cccc(OC)c2)nnc1-c1ccc(Cl)cc1,x,-18%,-3%,-10%,2.3%,-2%,-2%,5%
CCCN(CCC)S(=O)(=O)c1ccc(C(=O)Nc2cccc(-c3nc4ccccc4[nH]3)c2)cc1,u,u,x,x,-1.3%,7.9µM*,x,x
Cc1onc(-c2c(Cl)cccc2Cl)c1C(=O)Nc1ccc(Cl)cn1,0%,u,-9%,u,x,x,4%,-1%
Cc1sc2ncnc(Sc3ccccc3C(=O)Nc3ccccc3Cl)c2c1C,-14%,x,-6%,-2%,-2.1%,u,8%,-15%
CCCCNC(=O)O[C@H]1C[C@@H]2CCN3C(=O)CCC[C@H]([C@H]1CC)[C@H]23,-21%,x,-3%,x,x,x,-22%,-1%
COc1ccc(C(=O)NCC(=O)N/N=C/c2c(C)[nH]c3ccccc23)cc1,1%,x,-7%,x,x,x,4%,-2%
O=C(c1ccc(F)cc1)C1CCN(C(=S)Nc2ccccc2)CC1,x,-11%,9%,13%,2.4%,2%,1%,4%

# The list continues:
SMILES,2A StopGo,LASV entry inh,NS1 function inh,Marburg entry inh,Cruzain Triton,Cruzain noTriton,RE007 growth inh,SARS PLpro yeast
Cc1cc(C)cc(NC(=O)c2ccccc2NC(=O)CCC(=O)O)c1,-16%,5%,5%,u,3.7%,10%,-5%,-11%
Cc1c(C(=O)N2CCN(c3ccc(F)cc3)CC2)sc2nc(-c3ccccc3)cn12,12%,12%,-9%,-24%&-24%,1.1%,20%,21%,1%
CCCS(=O)(=O)c1c(S(=O)(=O)CCC)c2cc(CC)ccn2c1C(=O)c1ccc(Cl)cc1,-12%,-1%[46.1 µM],x,-7%[46.1 µM],-2.2%,-4%,x,x
Cc1ccccc1NC(=O)c1ccc(S(=O)(=O)N(C)C)cc1,-11%,x,3%,x,-1.4%,-1%,-17%,15%
O=C(Cn1nnc(-c2cccc(C(F)(F)F)c2)n1)NNS(=O)(=O)c1cccc(C(F)(F)F)c1,69%[activator],x,4%,x,x,x,0%,0%
Cc1ccc(NC(=O)c2ccc([N+](=O)[O-])o2)c(C)c1,-9%,x,-7%,x,x,x,-27%,-1%
Cc1ccc(S(=O)(=O)c2nc(-c3cccs3)oc2NCc2cccnc2)cc1,35%[activator],3%,-9%,-18%,x,x,2%,6%
O=C(NCc1ccc(F)cc1)C1CCN(S(=O)(=O)c2ccc(Cl)cc2)CC1,-7%,-32%[46.1 µM],-8%,-9%[46.1 µM],x,x,8%,1%
CCOC(=O)CCSc1nc(C)c2cc(OC)ccc2n1,x,-1%,3%,u,-4.8%,14%,-6%,-13%
Cn1c(=O)[nH]c(=O)c2c1nc(N/N=C/c1ccncc1)n2Cc1ccc(F)cc1,2%,-7%,1%,6%,x,x,11%,-2%
COc1ccc(S(=O)(=O)NCC(c2ccco2)S(=O)(=O)c2cccs2)cc1F (stereo not given),58%[activator],-9%[46.1 µM],x,x,-3.5%,0%,x,x
Cc1cccc(-n2c(-c3ccco3)nc3c(cnn3-c3ccc(F)cc3)c2=O)c1,0%,-31%[46.1 µM],x,4%[46.1 µM],-9.8%,-6%,x,x
